Source: PubChem BioAssay (ICCB-Longwood Screening Facility, Harvard Medical School)
Mtb MbtI inh: MbtI salicylate synthase inhibitors, primary screen, biochemical, fluorescence intensity; P9WFX0; purified MbtI enzyme, fluorescence intensity read-out; inhibition, %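 (about 17 µg/mL by stock and volumes)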; 100,000 tested, 0.89% active;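 active means above 50% in both replicates, above 80% if mildly self-fluorescent; inactive means the rest, strongly fluorescent compounds included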;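 further: 0% = mean of negative and 100% = mean of positive controls; one replicate is shown; some compounds called inactive have numbers as strong as hits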
Target sequence (P9WFX0 whole entry, looked up): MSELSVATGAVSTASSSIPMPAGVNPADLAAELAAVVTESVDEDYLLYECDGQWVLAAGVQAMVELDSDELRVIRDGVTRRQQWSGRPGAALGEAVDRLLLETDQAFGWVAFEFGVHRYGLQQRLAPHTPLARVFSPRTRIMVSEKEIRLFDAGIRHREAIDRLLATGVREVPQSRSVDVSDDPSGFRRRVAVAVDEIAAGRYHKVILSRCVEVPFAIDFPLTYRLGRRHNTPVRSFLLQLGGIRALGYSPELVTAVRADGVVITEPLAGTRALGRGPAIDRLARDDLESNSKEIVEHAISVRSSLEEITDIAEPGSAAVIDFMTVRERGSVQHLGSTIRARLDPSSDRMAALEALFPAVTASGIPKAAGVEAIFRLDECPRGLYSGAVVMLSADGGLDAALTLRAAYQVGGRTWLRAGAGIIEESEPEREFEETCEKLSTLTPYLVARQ
Mtb MenB inh: M. tuberculosis MenB inhibitors, primary screen, biochemical, absorbance; 1,4-dihydroxy-2-naphthoyl-CoA synthase (Mycobacterium tuberculosis (strain ATCC 25618 / …; MenB enzyme assay, absorbance read-out; some hits fall short of the stated cut; inhibition, %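 (about 12 µg/mL by stock and volumes)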; 100,000 tested, 0.43% active;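 active means mean of two replicates above 30%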;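 further: 0% = no compound and 100% = wells with inactive enzyme; the first replicate is given; strong numbers were not always called active; inactives centre near -10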
Target sequence (P9WNP5 whole entry, looked up): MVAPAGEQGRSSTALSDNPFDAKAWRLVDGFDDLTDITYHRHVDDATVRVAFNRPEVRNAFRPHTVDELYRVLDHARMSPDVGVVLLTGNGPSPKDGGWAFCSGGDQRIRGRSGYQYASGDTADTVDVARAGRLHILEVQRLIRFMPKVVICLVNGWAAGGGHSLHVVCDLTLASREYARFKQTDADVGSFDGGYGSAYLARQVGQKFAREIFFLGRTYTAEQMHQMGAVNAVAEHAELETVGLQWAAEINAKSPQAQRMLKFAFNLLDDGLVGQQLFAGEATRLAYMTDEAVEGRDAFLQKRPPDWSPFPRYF
PV pol inh: poliovirus RdRp elongation inhibitors, primary screen, biochemical, fluorescence polarization, total intensity; poliovirus polymerase elongation; active compounds read low; % elongation, % (compound at 16.7 µg/mL); 150,000 tested, 0.66% active; in the data active means % elongation below about 90%; further: some results filed as inactive read as strong as hits
PV pol inh intensity: also measured in PV pol inh; calls as there; % elongation; measured here: total intensity read-out; formula for this scale not given here;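 total fluorescence in place of polarization; lower means less elongation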
The depositor's hits bear a star; i = inactive; nt = no result given.

nr	mol	Mtb MbtI inh	Mtb MenB inh	PV pol inh	PV pol inh intensity
1	c1ccc(C2Oc3ccccc3C3Oc4ccccc4CC23)cc1 (stereo not drawn)	nt	-3.0	103.0	99.0
2	S=c1n(CN2CCCCC2)nc2n1CCCCC2	-0.1	-1.6	95.0	93.0
3	O=C(NCCCN1CCCC1)c1cc2ccc3cccnc3c2[nH]1	-0.9	-3.8	100.0	100.0
4	CNS(=O)(=O)c1ccc(NC(=O)CCC(=O)c2ccc(C)cc2)cc1	-0.3	6.2	94.0	103.0
5	COc1ccc(CCNC(=O)c2cc3sc(C)cc3n2C)cc1OC	4.1	-10.8	103.0	106.0
6	CCCCN(Cc1cc2ccccc2[nH]c1=O)S(C)(=O)=O	45.7	-25.8	106.0	99.0
7	N#CSCC(=O)c1ccc(Br)cc1	34.2	25.9	100.0	102.0
8	C/C(CCc1oc2ccc(Br)cc2c1-c1ccc(C)o1)=N\O	21.2	-33.2	103.0	103.0
9	Cc1onc(-c2ccccc2)c1C(=O)C(C#N)c1nc(-c2ccc(F)cc2)cs1 (stereo not drawn)	-18.7	2.7	126.0	140.0
10	CCn1c(C(=O)NC2CC2)cc2sc(Cl)cc21	0.7	0.8	104.0	109.0
11	Cc1cc2c(cc1S(=O)(=O)N(C)Cc1ccccc1)n(C)c(=O)c(=O)n2C	58.7	-10.4	103.0	103.0
12	Cc1c(O)c(CN2CCC(C)CC2)cc2c(-c3ccccc3)cc(=O)oc12	nt	-11.6	110.0	112.0
13	COc1cccc(NC(=O)c2oc3ccc(S(=O)(=O)N4CC(C)CC(C)C4)cc3c2C)c1 (stereo not drawn)	0.7	-12.3	100.0	97.0
14	CNS(=O)(=O)c1ccc(Br)cc1I	-1.1	13.4	102.0	105.0
15	Cc1ccc(-c2nc(CSCC(=O)NCCN3CCN(c4cccc(Cl)c4)CC3)c(C)o2)cc1	-1.4	-8.6	102.0	105.0
16	Cc1cc(/C=C2/SC(=O)N(c3ccccc3)C2=O)c(C)n1-c1cccnc1	-2.8	-130.9	102.0	104.0
17	Cc1ccc(-c2csc(N3CCC(NS(=O)(=O)c4ccc5c(c4)OCCO5)CC3)n2)cc1	4.3	-47.6	102.0	102.0
18	CC(C)(C)n1ncc2c(=O)n(CC(=O)N3CCCc4ccccc43)cnc21	2.1	-29.7	98.0	101.0
19	CCC(C)Nc1cc(C(C)C)c(C#N)c2nc3ccccc3n12 (stereo not drawn)	115.7	0.6	103.0	100.0
20	COc1cccc(CN(C(=O)/C=C/c2ccccc2)C2CCS(=O)(=O)C2)c1 (stereo not drawn)	9.0	-10.4	101.0	98.0
21	N#CCOC(=O)c1ccccc1S(=O)(=O)N1CCCCC1	26.4	14.2	101.0	101.0
22	CCn1c2ccccc2c2nnc(NCCN3CCN(c4cc(Cl)ccc4C)CC3)nc21	-3.9	-13.2	101.0	102.0
23	Cc1cc(C)nc(SCc2cc(-c3nn(C)c(=O)c4ccccc34)ccc2C)n1	15.2	-14.3	102.0	105.0
24	Cc1nn(-c2ccccc2)c(N2CCCC2)c1/C=N/O	1.4	-10.1	103.0	103.0
25	Cn1c(SCCc2ccccc2)nnc1-c1ccc2c(c1)OCO2	-12.4	-27.1	101.0	101.0
26	COC(=O)C(O)(c1ccc(N)c(OC)c1)C(F)(F)F (stereo not drawn)	2.2	-8.1	102.0	104.0
27	CCOC(=O)c1nc(C)sc1-c1ccnn1S(=O)(=O)c1ccc(C)cc1	-7.5	-5.0	103.0	104.0
28	N=c1n(CCO)c2ccccc2n1Cc1ccccc1Cl	-8.3	-21.5	103.0	101.0
29	COc1cccc(OC)c1CO	-0.3	-7.5	101.0	100.0
30	OCc1nnc2n1N=C(c1ccc(Cl)cc1)CS2	-1.0	-25.5	103.0	103.0
31	O=C(c1ccc(Cn2c(=O)c3cccn3c3cccnc32)cc1)N1CCCC1	33.7	3.1	99.0	101.0
32	CC(On1nnc2ccccc21)C(=O)Nc1ccc(Cl)cc1Cl (stereo not drawn)	2.3	-11.9	99.0	102.0
33	CCc1ccc(N(CC(=O)N2CCCCC2)S(C)(=O)=O)cc1	0.7	-48.6	102.0	101.0
34	COC(=O)c1sc2nc(-c3ccco3)cc(C(F)(F)F)c2c1N	41.1	1.4	86.0	127.0
35	c1ccc(-c2cc(-c3ccco3)c(-c3ccccc3)nn2)cc1	21.8	-22.7	100.0	99.0
36	c1ccc(CCNc2nc(-c3ccccc3)no2)cc1	-10.2	-35.4	104.0	103.0
37	O=S(=O)(c1ccccc1)c1nc(Cc2ccccc2)oc1N1CCOCC1	-4.4	3.4	102.0	105.0
38	FC(F)(F)c1cccc(Nc2nnnn2C2CCCC2)c1	1.4	-6.3	95.0	96.0
39	Cc1ccc(C)c(NC(=O)C2CCCN(C(=O)c3cnn(-c4ccccc4)c3-n3cccc3)C2)c1 (stereo not drawn)	-9.7	-5.9	101.0	103.0
40	CCN(CC)c1ccc2cc(C(N)=O)/c(=N\NC(=O)c3ccccc3)oc2c1	-1.1	-13.9	77.0	191.0
41	C=CCN1C(=O)NC(=O)/C(=C\c2ccc(O)c(O)c2)C1=O	20.3	-50.1	101.0	108.0
42	NC1=NC(=O)/C(=C\c2ccc3c(c2)OCO3)S1	16.9	-12.4	92.0	115.0
43	Cc1cc(-n2c(C)cc(C(=O)CSc3ccc(F)c(F)c3)c2C)no1	7.1	-10.5	100.0	106.0
44	O=C(c1cnc(N2CCOCC2)nc1)N1CCN(c2ccc(F)cc2)CC1	-22.8	-9.6	101.0	102.0
45	COC(=O)C1=C(CN2CCOCC2)NC(=O)NC1c1cccc(OC)c1 (stereo not drawn)	4.8	-45.8	104.0	99.0
46	CC(NC(=O)c1ccc[nH]c1=O)c1ccc(Cl)cc1Cl (stereo not drawn)	99.8	-35.7	105.0	104.0
47	CN(C)C(=O)N1CCC(C(=O)NCCC2=CCCCC2)CC1	10.5	5.4	99.0	102.0
48	CCC(CC)C(=O)Nc1c(-c2ccccc2)nc2cc(C)ccn12	114.8	-13.0	100.0	97.0
49	COC(=O)CCC(=O)Nc1nccs1	nt	-14.3	102.0	104.0
50	CCCCn1c(-c2nn(C)cc2Cl)n[nH]c1=S	5.7	-20.6	103.0	104.0
51	CS(=O)(=O)Nc1cc(NS(C)(=O)=O)cc(C(=O)O)c1	nt	-15.3	104.0	103.0
52	CC1CCN(S(=O)(=O)c2ccc3c(c2)c(=O)c(C(=O)N(C)Cc2ccccc2)cn3C)CC1	1.7	-0.7	98.0	104.0
53	O=C(NCCS(=O)(=O)NC1CCCCC1)c1ccccc1	12.2	-20.1	108.0	98.0
54	CSc1ccc(NC(=O)NCc2ccccc2)cc1	3.0	-29.6	101.0	100.0
55	NC(=O)COC(=O)c1ccccc1Nc1ccccc1	-80.0	-17.5	101.0	104.0
56	COc1ccccc1C(=O)NCc1ccc2c(c1)cc(C)n2C	-4.3	-24.4	105.0	105.0
57	O=C(O)c1cccc(N(CCO)CCO)c1	i	3.1	100.0	101.0
58	Cc1csc(=O)n1CC(=O)NC1CCC(C)CC1 (stereo not drawn)	2.8	8.1	104.0	106.0
59	NNC(=O)CSc1ccc(Cl)cc1	-4.4	-6.5	104.0	102.0
60	Cc1cc(/C=C/c2ccc(OCC(O)CNC(C)C)cc2)on1 (stereo not drawn)	nt	12.1	104.0	107.0

The results go on:
nr	mol	Mtb MbtI inh	Mtb MenB inh	PV pol inh	PV pol inh intensity
61	Cc1ccc(S(=O)(=O)NCCNc2nccc(C(F)(F)F)n2)cc1	-12.2	-14.5	107.0	105.0
62	O=S(=O)(Nc1ccccc1F)c1ccc2[nH]c3c(c2c1)CCCC3	4.3	-15.1	103.0	99.0
63	Cc1cc2c(cc1S(N)(=O)=O)S(=O)(=O)CCC2	-29.6	-5.2	99.0	100.0
64	COc1ccccc1NC(=O)Oc1ccc2ccncc2c1	25.2	19.1	104.0	96.0
65	CCOC(=O)C1C(=O)CC(C)(O)C(C(=O)OCC)C1/C=C/c1ccccc1 (stereo not drawn)	-5.8	-2.5	100.0	103.0
66	Cn1c(=O)c2c(-c3ccc(Br)cc3)n(Cc3ccco3)cc2n(C)c1=O	6.2	-10.0	101.0	103.0
67	O=S(=O)(CCSc1nccc(-c2ccc(Cl)cc2)n1)c1ccc(Cl)cc1	-12.3	-22.6	107.0	103.0
68	O=C(CSc1ncc(-c2ccccc2)n1CC1CCCO1)Nc1nccs1 (stereo not drawn)	-2.2	-65.4	103.0	101.0
69	COC(=O)c1ccccc1NC(=O)c1ccc(-n2nc(C(F)(F)F)c3c2-c2ccoc2CC3)cc1	-1.0	-17.0	103.0	108.0
70	CC(C)c1ccc(OCc2ccc(C(=O)Nc3cccnc3)o2)cc1	15.2	-21.3	101.0	102.0
71	FC(F)(F)c1nnc2c3ccccc3nc(-c3ccccc3)n12	25.5	-63.2	101.0	102.0
72	CC(C)C(=O)Nc1c(C(=O)N2CCN(Cc3ccccc3)CC2)oc2ccccc12	-18.9	-63.2	102.0	99.0
73	O=C(C(Cc1ccccc1)N1C(=O)C2C3C=CC(C3)C2C1=O)N1CCCCC1 (stereo not drawn)	-1.6	14.6	101.0	103.0
74	O=C(c1sc2ccccc2c1Cl)N1CCCC1	nt	-11.6	106.0	110.0
75	CC1(C)CC(=O)C(C(=S)Nc2ccccc2)=C(NCc2ccccc2)C1	-10.8	-15.5	101.0	99.0
76	CCOC(=O)c1nc(-c2ccccc2)oc1N(C)C	103.8	-13.6	103.0	106.0
77	O=C(N/N=C/C=C/c1ccccc1)c1ccncc1	15.4	-14.4	103.0	100.0
78	CN(C)C1(CNC(=O)Cc2ccccc2F)CCCCC1	-13.9	-6.3	nt	nt
79	CC(C)Cc1nn2c(=O)cc(O)nc2s1	-17.6	-73.3	102.0	103.0
80	CC(C)(CN1CCC(Cc2ccccc2)CC1)NS(=O)(=O)c1ccccc1	-14.2	nt	103.0	107.0
81	Cc1ccc(Cn2c(C(=O)O)c(CNC3CC3)c3ccccc32)cc1	62.6	-21.0	99.0	99.0
82	CCc1nnc(NC(=O)CN(CC)CC)s1	7.1	12.1	107.0	100.0
83	O=c1[nH][nH]c2c1CCCC2	6.4	23.8	nt	nt
84	CN(C(=O)C1=CC(c2ccco2)=NS(=O)(=O)N1C)c1ccccc1	-7.7	-34.1	103.0	104.0
85	CNC(=O)NC(=O)CSc1nnc(-c2ccc(C(C)(C)C)cc2)n1C	3.2	7.6	99.0	97.0
86	COc1ccc(CNC(=O)C2=CC=CN3CCS(=O)(=O)N=C23)cc1	14.8	0.8	109.0	107.0
87	CC1Cc2ccccc2N1C(=O)Cn1ncc(Cl)c(Cl)c1=O (stereo not drawn)	9.7	-17.4	92.0	101.0
88	CCOC(c1ccccc1)c1nc2ccccc2n1CC (stereo not drawn)	4.0	0.2	101.0	101.0
89	CN(Cc1c(F)cccc1Cl)C(=O)CN1CCN(c2ncccn2)CC1	2.0	6.2	100.0	96.0
90	CCN(CC)C1=NC(Cc2ccccc2)C(=O)N1c1ccccc1OC (stereo not drawn)	-31.1	-26.2	103.0	105.0
91	O=C(N/N=C/C1=C(N2CCOCC2)C(=C\c2ccccc2)/CC1)c1ccccc1	-8.1	-39.5	106.0	100.0
92	CCN(CC)S(=O)(=O)c1ccc(NC(=O)c2cc(-c3cccs3)nc3ccccc23)cc1	105.8	-15.9	100.0	104.0
93	CC(C)c1nc(=S)c2cc(Br)cc(Br)c2[nH]1	nt	-11.4	105.0	110.0
94	Cc1c(C#N)c(O)[nH]c(=O)c1N=Nc1ccc(S(N)(=O)=O)cc1	19.7	-271.5	102.0	96.0
95	CN(C)c1ccc(CNCCCn2ccnc2)cc1	86.6	4.0	101.0	99.0
